# Choline anaer gr – choline-fed anaerobic bacterial growth inhibition; Gram-negative bacterium anaerobic choline minimal medium, absorbance growth; hits give low values; many inactives read as strong as hits in the columns shown; calls only; actives 0.2% (n = 55,000); AID 1963822;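 active means growth z-score on choline under -2 at 7 or 20 h with little or no fall on glycerol, limits in tiers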;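 further: stock transfer was 300 nL into about 50 µL; the organism is E. coli; final concentration not given here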
# Choline anaer gr early – recorded beside Choline anaer gr, whose call it bears; z-score; measured here: choline growth z-score, timepoint 1;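 score of optical density at 7 h as mean of two plates; lower means less growth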
# An asterisk follows results filed as active; i = inactive; & = joins results of further samples. Not all compounds are listed (hit frequency here may not be typical).
# The first five entries (preview)
# Results follow in this order: Choline anaer gr early | Choline anaer gr
> COc1ccc(CNC(=O)c2ccc(N3CCCC3)c(NC(=O)NCC3CCCO3)c2)cc1 (stereo not given)
  -0.9 | i
> Cc1ccc(S(=O)(=O)Nc2ccc3nncn3n2)cc1
  0.21 | i
> Cc1cc(OCC(=O)NCC2CCCO2)nc2c1c(C)nn2-c1ccccc1 (stereo not given)
  0.86 | i
> O=c1c2ccccc2ncn1Cc1noc(/C=C/c2ccccc2Cl)n1
  0.57 | i
> COc1ccc(S(=O)(=O)c2ccc(NCCc3c[nH]c4ccc(OC)cc34)nn2)cc1
  0.2 | i

# This part in full, from the first entry:
# Results follow in this order: Choline anaer gr early | Choline anaer gr
> COc1ccc(CNC(=O)c2ccc(N3CCCC3)c(NC(=O)NCC3CCCO3)c2)cc1 (stereo not given)
  -0.9 | i
> Cc1ccc(S(=O)(=O)Nc2ccc3nncn3n2)cc1
  0.21 | i
> Cc1cc(OCC(=O)NCC2CCCO2)nc2c1c(C)nn2-c1ccccc1 (stereo not given)
  0.86 | i
> O=c1c2ccccc2ncn1Cc1noc(/C=C/c2ccccc2Cl)n1
  0.57 | i
> COc1ccc(S(=O)(=O)c2ccc(NCCc3c[nH]c4ccc(OC)cc34)nn2)cc1
  0.2 | i
> O=C(COc1ncnc2onc(-c3ccc(F)cc3)c12)NC1CCS(=O)(=O)C1 (stereo not given)
  1.8 | i
> CCOc1ccc(S(=O)(=O)N2CCCN(c3nc4cccnc4s3)CC2)cc1
  0.4 | i
> O=S(=O)(c1ccc(F)cc1)N1CCn2cccc2C1c1ccccc1 (stereo not given)
  -0.27 | i
> OCCN1CCN(CC/C=C2/c3ccccc3Sc3ccc(Cl)cc32)CC1
  -1.68 | i
> Cn1c(=O)c(-c2noc(CCC(=O)Nc3ccc(F)cc3Cl)n2)nn(-c2ccc(F)cc2)c1=O
  0.57 | i
> Cc1ccc(-c2ccc(-n3nc(C)c(S(=O)(=O)N4CCCC4)c3C)nn2)cc1
  -0.19 | i
> Cc1nnc(-c2csc(S(=O)(=O)N3CCCC3)c2)o1
  0.24 | i
> O=C(Nc1cccc(Cl)c1)N1Cc2ccccc2Oc2ncccc21
  -1.38 | i
> CC(C)c1cc(C2CCCN2C(=O)Nc2cccc(Cl)c2)no1 (stereo not given)
  0.27 | i
> Cc1nn(-c2nc3ccc(Br)cc3s2)c2c1C(c1ccc(Cl)cc1)CC(=O)N2 (stereo not given)
  0.4 | i
> CC1(C(=O)NC2CCCC2)Cn2c(cc3sccc32)C(=O)N1C1CCN(Cc2ccccc2)CC1 (stereo not given)
  0.55 | i
> Cc1c2c(=O)n(-c3nc4ccccc4s3)nc-2cc(O)n1CCc1c[nH]c2ccccc12
  0.47 | i
> Cc1cc(NC(=O)c2nc(-n3cnnc3)ccc2Br)no1
  -0.38 | i
> O=C(Nc1ccc(SCc2nnc(-c3ccccc3)o2)cc1)c1ccccc1
  0.66 | i
> Cc1nc(-c2cc(S(=O)(=O)NCC(=O)NC3CCCC3)c(C)s2)no1
  -0.24 | i
> O=C(NC1CCCC1)C1CCCCN1S(=O)(=O)c1ccc(F)cc1 (stereo not given)
  -0.72 | i
> CC(C)c1ccc(S(=O)(=O)N2CCCC2c2nc(-c3ccc(Cl)cc3)no2)cc1 (stereo not given)
  -0.08 | i
> O=C(Nc1ccccc1)c1ccccc1O
  -1.46 | i
> O=c1[nH]nc(C2CCCN(S(=O)(=O)C3CC3)C2)n1-c1ccccc1 (stereo not given)
  -0.35 | i
> Cc1ccc(S(=O)(=O)NC2CCN(C(=O)c3cc4ccccc4[nH]3)CC2)cc1
  -1.27 | i
> CC(O)C1CCN(Cc2ccc(Br)o2)CC1 (stereo not given)
  -0.04 | i
> O=C(NC1CCCCNC1=O)c1nc[nH]c1C(=O)NCc1ccccn1 (stereo not given)
  -0.71 | i
> COc1ccc(Nc2ncnc3sc(C(=O)O)c(C)c23)cc1Cl
  1.05 | i
> O=C(NCC1CCCO1)c1c(-c2ccccc2)c(-c2ccccc2)n[nH]c1=O (stereo not given)
  1.15 | i
> CC(C)CNC(=O)Cc1csc(NC(=O)c2ccccc2)n1
  -0.65 | i
> Cc1nc2nc3c(c(Nc4ccc(Br)cc4)n2n1)CCC3
  -1.81 | i
> O=C(Nc1ccc(F)cc1)Nc1ccc2nc3n(c(=O)c2c1)CCC3
  -0.41 | i
> Cc1cccc(NC(=O)C2CCN(c3nc(-c4ccccc4C)no3)CC2)n1
  -0.61 | i
> O=C(NCC1CCCO1)c1ccc(Nc2ncc(-c3cccc(F)c3)cn2)cc1 (stereo not given)
  0.42 | i
> CCc1cc(C2CCCN2C(=O)Nc2cc(C)cc(C)c2)on1 (stereo not given)
  0.22 | i
> CCCCN(C)S(=O)(=O)c1cc(-c2nnc(C(C)C)o2)co1
  -0.11 | i
> Cc1cc(N2CCN(C)CC2)nc(N2CCN(C(=O)c3ccc(Br)cc3)CC2)n1
  1.06 | i
> Cn1c(SCC(=O)N2CCCC2)nc2cc(-c3ccccc3)sc2c1=O
  -1.6 | i
> O=C(C1=COCCO1)N1CCN(c2nc3c(F)cc(F)cc3s2)CC1
  0.46 | i
> COc1ccc(S(=O)(=O)NCc2cccn2Cc2cccc(F)c2)cc1
  0.72 | i
> COC(=O)c1ccc(CN2CCCC2c2cc(C)on2)cc1 (stereo not given)
  0.16 | i
> COc1cccc(NC(=O)C2CCN(C(=O)c3ccc(-c4noc(C)n4)cc3)CC2)c1
  0.22 | i
> CCCCNC(=O)C1CCN(c2ccc(-c3ccccc3)nn2)CC1
  0.51 | i
> COc1ccc(OC)c(CN2CCCC2c2c(C)noc2C)c1 (stereo not given)
  -0.13 | i
> COc1ccc(C2NC(=O)c3ccccc3N2)cc1 (stereo not given)
  -1.68 | i
> Cc1c(C(=O)O)nnn1-c1ccc(Br)cc1
  -0.53 | i
> CC(=O)N1N=C(c2cc(-c3ccccc3)nc3ccccc23)OC1c1ccccn1 (stereo not given)
  -1.98 | i
> O=S(=O)(c1ccc(F)cc1)c1nc(-c2ccc(F)cc2)oc1NCc1cccnc1
  0.37 | i
> O=C(NCc1n[nH]c(=O)c2ccccc12)C(=O)NCC1CCCO1 (stereo not given)
  -1 | i
> CC(C)(C)c1ccc(C(=O)Nc2ccc(Cn3cnc(-c4nc(-c5ccc(F)cc5)no4)c3)cc2)cc1
  -0.94 | i
> O=C(CCC(=O)N1Cc2cccn2-c2ccccc21)NCCc1c[nH]c2ccc(Cl)cc12
  0.35 | i
> O=C(NCCN1CCCCC1)c1cc2ccc3cccnc3c2[nH]1
  0.89 | i
> O=C1O[C@H](C(O)CO)C(O)C1O (stereo not given in full)
  0.23 | i
> Cc1nn2c(c1-c1ccc(Cl)c(S(=O)(=O)N3CCOCC3)c1)NC(=O)CCC2=O
  0.51 | i
> O=C(Nc1ccc(Cn2cnc(-c3nc(-c4ccc(Br)cc4)no3)c2)cc1)c1ccccc1
  0.09 | i
> CNC(=O)[C@H]1O[C@@H](n2cnc3c(NCc4ccc(N)cc4)ncnc32)C(O)[C@H]1O (stereo not given in full)
  -0.24 | i
> COC(=O)/C=C/C(=O)OC
  0.22 | i
> Cc1ccc(NC(=O)c2ccc(S(=O)(=O)c3ccccc3)nc2)cc1
  0.49 | i
> CCCCN1C(=O)c2c(-n3cccc3)c3ccccc3n2CC1(C)C(=O)NC1CCCC1 (stereo not given)
  0.93 | i
> COc1cccc(C2=NS(=O)(=O)N(C)C(C(=O)Nc3ccn(Cc4ccccc4C)n3)=C2)c1
  0.41 | i

# Part of the list above in order of molar mass, ascending:
# Results follow in this order: Choline anaer gr early | Choline anaer gr
> COc1ccc(S(=O)(=O)NCc2cccn2Cc2cccc(F)c2)cc1
  0.72 | i
> O=C(NCC1CCCO1)c1ccc(Nc2ncc(-c3cccc(F)c3)cn2)cc1 (stereo not given)
  0.42 | i
> CCCCN1C(=O)c2c(-n3cccc3)c3ccccc3n2CC1(C)C(=O)NC1CCCC1 (stereo not given)
  0.93 | i

# An excerpt of these results, with tabs.
Compound	Choline anaer gr early	Choline anaer gr
O=C(NC1CCCCNC1=O)c1nc[nH]c1C(=O)NCc1ccccn1 (stereo not given)	-0.71	i
O=C(Nc1ccccc1)c1ccccc1O	-1.46	i
Cc1ccc(S(=O)(=O)Nc2ccc3nncn3n2)cc1	0.21	i
Cc1ccc(NC(=O)c2ccc(S(=O)(=O)c3ccccc3)nc2)cc1	0.49	i
CC(C)CNC(=O)Cc1csc(NC(=O)c2ccccc2)n1	-0.65	i

# (listing goes on)
# Results follow in this order: Choline anaer gr early | Choline anaer gr
> Cc1ccc(-c2n[nH]c3c2C(c2cccnc2)N(c2ccc(Cl)cc2)C3=O)cc1 (stereo not given)
  -0.96 | i
> CCc1ccc(NC(=O)CCc2c(C)nn3cnnc3c2C)cc1
  -0.75 | i
> CC(=O)N1CCC2(CC1)OC(=O)C(C)=C2C(=O)NCc1ccc(Cl)cc1
  1.3 | i
> COCCn1c(SCc2cc(=O)n3ccccc3n2)nc2c(-c3ccccc3)cn(C)c2c1=O
  -0.05 | i
> CC1C(=O)N2CCCc3cc(S(=O)(=O)N4CCc5ccccc5C4)cc1c32 (stereo not given)
  0.18 | i
> CC1CC(=O)Nc2cc(S(=O)(=O)N3CCN(c4ncccn4)CC3)ccc2S1 (stereo not given)
  -0.16 | i
> CC[C@@H](C)[C@H]1O[C@]2(CC[C@@H]1C)C[C@@H]1C[C@@H](C/C=C(\C)[C@@H](O[C@H]3C[C@H](OC)[C@@H](O[C@H]4C[C@H](OC)[C@@H](O)[C@H](C)O4)[C@H](C)O3)[C@@H](C)/C=C/C=C3\CO[C@@H]4[C@H](O)C(C)=C[C@@H](C(=O)O1)[C@]34O)O2
  0.51 | i
> CCN(CC)S(=O)(=O)c1ccc2c(c1)N(CC(=O)NC)C(=O)C1CCCCN21 (stereo not given)
  -0.94 | i
> COc1ccc(CN2CCCC2c2cc(C(C)C)on2)cc1OC (stereo not given)
  1.42 | i
> COc1ccc(-c2n[nH]c(CCNC(=O)Cc3cccc(OC)c3)n2)cc1
  0.27 | i
> CCC(C)NC(=O)CCc1nc(CS(=O)(=O)c2ccccc2)no1 (stereo not given)
  0.31 | i
> Brc1cccc(-c2nnc3sc(CNCc4ccc5c(c4)OCO5)cn23)c1
  -0.53 | i
> COc1cccc2c(=O)c(NC(=O)N3CCCC(C(N)=O)C3)c[nH]c12 (stereo not given)
  -0.86 | i
> CN(C)CCNCc1ccc(-c2ccc(Cl)cc2Cl)o1
  -3.8 | i
> Cc1sc(-c2noc(C3CCC3)n2)cc1S(=O)(=O)N1CCCC(C(=O)N2CCCCC2)C1 (stereo not given)
  0.24 | i
> CC(C)c1cc(C2CCCN2Cc2ccccc2F)no1 (stereo not given)
  0.47 | i
> Cc1cc(-n2nc(C)cc2C)n2nc(C(F)(F)F)c(-c3ccccc3Cl)c2n1
  -0.54 | i
> NS(=O)(=O)c1cc2c(cc1Cl)NC(C(Cl)Cl)NS2(=O)=O (stereo not given)
  0.62&0.22 | i
> CCSc1ncc(Cl)c(C(=O)N(Cc2ccc(OC)cc2)C2CCS(=O)(=O)C2)n1 (stereo not given)
  1 | i
> O=C(NC1CCCCC1)C1CCCN(c2nc3ncccc3n3cccc23)C1 (stereo not given)
  -2.13 | i
> COc1cccc(CNC(=O)c2ccc3nc4ccc(Cl)cc4c(=O)n3c2)c1
  -0.93 | i
> CC(C)CCn1c(=O)c2ccc(C(=O)NCC(C)C)cc2n2c(=O)n(CC(=O)NC(C)(C)C)nc12
  0.9 | i
> Nc1nc2c(c(=O)[nH]1)C(c1cccc(Br)c1)CC(=O)N2 (stereo not given)
  1.01 | i
> COc1ccc(NC(=O)CSc2ncc(-c3ccccc3)o2)c(OC)c1
  1.01 | i
> CCCn1c(=O)c2c(ncn2C)n(CCC)c1=O
  0.1 | i
> CCn1nc(C)c(CCN(C)C(=O)Nc2cc(OC)ccc2OC)c1C
  -1.59 | i
> COc1cccc(C(=O)N2CCN(C)c3ccccc32)c1
  -0.21 | i
> Cc1ccc(C(=O)N(CCCN(C)C)c2nc3ccc(Cl)cc3s2)cc1C
  0.7 | i
> O=C(CCc1nc2sc3c(c2c(=O)[nH]1)CCCC3)Nc1ccc(Cl)cc1
  0.98 | i
> C=CCOc1ccc(C2CC(=O)Nc3c2cnn3-c2nc3ccccc3s2)cc1OCC (stereo not given)
  -0.24 | i
> COc1ccccc1NCc1nc2nc3c(c(=O)n2[nH]1)CCC3
  0.26 | i
> CCOC(=O)c1[nH]c(C)c(CCC(=O)N2CCCC(C(=O)NC(C)C)C2)c1C (stereo not given)
  -0.25 | i
> CC1CCC(NC(=O)CN2C(=O)CCc3cc(S(=O)(=O)N4CCOCC4)ccc32)CC1 (stereo not given)
  -0.35 | i
> O=C(CN1CCN(c2ccccc2)CC1)Nc1c(C(=O)C2CC2)oc2ccccc12
  -0.54 | i
> CNC(=O)N1c2ccccc2NC2=C(C(=O)CC(C)(C)C2)C1c1ccc(F)cc1 (stereo not given)
  -0.48 | i
> COc1ccc(NC(=O)c2nnc(C3CCN(C(=O)C4CC4)CC3)s2)cc1
  0.11 | i
> Cc1ccc(NC(=O)c2ncn(-c3ccccc3)n2)cc1
  1.67 | i
> O=C1CCSc2ccccc2N1Cc1ccc(F)cc1
  -1.63 | i
> Clc1ccc(Cc2nn3c(-c4cccnc4)nnc3s2)cc1
  -0.35 | i
> Cc1ccccc1-n1c(SCc2nc(-c3ccccc3)no2)nc2cc3c(cc2c1=O)OCO3
  -0.82 | i
> O=C(Nc1ccc2c(c1)OCO2)N1CCCC1c1cccc(F)c1 (stereo not given)
  -0.12 | i
> C[C@]12CC[C@@H]3c4cc(O)c(O)cc4CC[C@H]3[C@@H]1CC[C@@H]2O
  -2.83 | i
> Clc1ccccc1-n1ncc2c(N3CCOCC3)ncnc21
  -0.57 | i
> CN(c1ccnc(C(=O)N2CCOCC2)c1)S(=O)(=O)c1ccccc1
  1.23 | i
> COc1cccc(OC)c1C(=O)N[C@@H]1C(=O)N2[C@@H]1SC(C)(C)[C@@H]2C(=O)O
  0.84 | i
> O=C(C1CC1)N1CCc2cc(Br)c(S(=O)(=O)NCCN3CCN(c4ccccc4)CC3)cc21
  -0.81 | i
> CS(=O)(=O)N1CCN(c2ccc(Nc3c4c(nc5ncnn35)CCC4)cc2)CC1
  0.17 | i
> CN1CCN(CCNC(=O)CN2C(=O)C3CCCCN3c3ccc(C(=O)N(C)C)cc32)CC1 (stereo not given)
  -0.19 | i
